Bioassay records: PubChem, Fisher Drug Discovery Resource Center
NPYLR7 agonist = mosquito NPYLR7 agonism; activation, % at 10 µM; 270,000 tested, 0.15% active; HEK293T NPYLR7/Galpha15, GCaMP6s calcium fluorescence; AID 1259423; in the data active = activation above about 40%;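 note: 0% = vehicle and 100% = reference agonist at the receptor; some compounds past the cut are filed as inactive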
NPYLR7 agonist max-min = further read-out of NPYLR7 agonist, marked with its call; activation, %; measured here: Max-Min RFU normalised activation; some inactives read as strong as hits;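 span of the calcium signal over five minutes; 0% = vehicle and 100% = native peptide agonist; compound fluorescence can raise it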
* marks the source's active call; other numbers are inactive results.

Below each SMILES – NPYLR7 agonist | NPYLR7 agonist max-min
Cc1ccc(C)c(S(=O)(=O)NC2CCC(NS(=O)(=O)c3cc(C)ccc3C)CC2)c1 (stereo not given)
 : 1.0 | 11.9
NCCc1nc(NC2CC(=O)N(Cc3ccccc3)C2)c2ccccc2n1 (stereo not given)
 : 7.9 | 6.3
CCOc1ccccc1C(=O)Nc1ccc(N2CCN(C(=O)C3C[C@H]3c3ccccc3)CC2)nc1 (stereo not given in full)
 : -3.8 | 0.7
Cc1cccc(OC(F)F)c1NC(=O)C1(C)CCN1C(=O)c1ccc(C(C)(C)C)cc1 (stereo not given)
 : -0.7 | -1.5
COc1nccnc1-c1ccnc2[nH]ccc12
 : -1.2 | -4.7
Cc1cccc(OC(C)C(=O)NCCCn2nc(-c3ccccc3)ccc2=O)c1C (stereo not given)
 : 1.3 | -1.0
COc1cc2c(cc1OC)C(c1cccc(C(F)(F)F)c1)N(C(=O)c1ccc(SC(F)(F)F)cc1)CC2 (stereo not given)
 : 10.1 | 5.5
O=C(NCc1ccc(Cl)cc1)c1n[nH]n2c1nc(=O)c1ccccc12
 : 3.7 | 2.3
CCNN=Cc1cc(C(C)(C)C)cc(C(C)(C)C)c1O
 : -7.4 | -12.2
CCc1ccc(-n2nnc(C(=O)OCc3nc(-c4cccc(OC)c4OC)oc3C)c2C)cc1
 : -6.3 | -11.1
CCO[C@H]1[C@H](NC(=O)CC)c2ccccc2C12CCN(C(=O)c1cc(OC)nc3ccccc13)CC2
 : -2.1 | -4.0
COCCNC(=O)c1nn(CCC(C)C)c2c1CN(C(=O)c1ccccc1-c1ccccc1F)CC2
 : 12.4 | -0.3
CCOc1ccc(-c2ccc(=O)n(CCNC(=O)Nc3ccc(C(F)(F)F)cc3)n2)cc1
 : 2.8 | 2.4
COC(C)c1cccc(-c2ncccc2Cl)c1 (stereo not given)
 : 14.5 | 3.5
CCS(=O)(=O)c1ccc(C(=O)N=c2sc3cc(C)cc(C)c3n2C)cc1
 : 17.8 | 17.3
CN=C1SC(CC(=O)Nc2sccc2C(=O)OC)C(=O)N1C (stereo not given)
 : 1.1 | 34.3
Cc1cc(NC(C)c2ccccc2)n2nc(C)c(-c3ccccc3)c2n1 (stereo not given)
 : -3.8 | -6.9
COc1ccc(Br)cc1S(=O)(=O)Nc1cccc(C(F)(F)F)c1
 : 5.5 | 1.7
Cc1ccc(N2C(=O)CSC2c2cccnc2)cc1Cl (stereo not given)
 : -4.7 | -6.7
Cc1cc(NC(=O)N(C)C(C)c2cccnc2)sn1 (stereo not given)
 : 5.6 | 2.8
CNC(=O)c1ccc(CN(C)c2nnc(Br)s2)cc1
 : 6.5 | 3.2
CCOC(=O)CCNC(=O)c1ccc(-c2cc(-c3cccc(OC)c3)n[nH]2)cc1
 : -0.2 | 3.1
CCOC(=O)C1=C(C)N=c2s/c(=C\c3cccnc3)c(=O)n2C1c1ccccc1 (stereo not given)
 : 0.0 | 3.1
CC(=O)Nc1ccc(CN2CCC(c3nc(-c4ccncc4)ncc3-c3cccc(C)c3)CC2)cc1
 : 6.7 | 2.2
O=C(CN1C(=O)c2ccccc2C1=O)N1CCOCCOCCOCCOCCOCC1
 : 6.3 | 5.8
c1ccc(-c2ccc(CCC3CCN(Cc4cccs4)CC3)cc2)cc1
 : 1.2 | 9.4
COc1cccc(Cn2ccnc2CN(CCN2CCOCC2)C(=O)CC(C)C)c1
 : 6.2 | 9.0
Cc1ccc(OCCC(=O)NC2CCc3[nH]c4ccc(Cl)cc4c3C2)cc1 (stereo not given)
 : 21.5 | 10.1
CN1c2ccccc2C(=O)NC1c1ccccc1OCC(=O)N1CCCC1 (stereo not given)
 : -1.2 | -2.0
O=C(c1c[nH]c2ccccc12)N1CC[C@@H](c2ccc3c(c2)OCO3)[C@H](O)C1
 : 23.8 | 10.0
O=C(c1cccnc1)C1CCCN(Cc2nc(-c3ccc4c(c3)OCO4)no2)C1 (stereo not given)
 : 4.2 | 0.9
CC[C@H]1CN(c2ncc(C(=O)O)cc2Cl)CC[C@@]1(C)O
 : -1.8 | -3.2
CSCCC(=O)N1CCC(n2c(=O)oc3ccc(Cl)cc32)CC1
 : 15.0 | 23.7
COc1ccc(CCN(Cc2ccc(C)s2)C(=O)CN(C(=O)c2ccc(C(F)(F)F)cc2)C2CCCCC2)cc1OC
 : 6.4 | 12.5
Cc1ccc(Oc2ncnc3sc(C)c(C)c23)c([N+](=O)[O-])n1
 : 16.2 | 29.6
COc1ccccc1C(=O)N1CCC(C(NC(=O)c2cccc(C)c2)C(=O)N2CCOCC2)CC1 (stereo not given)
 : -2.5 | 3.7
CCc1ccc(C(C2Sc3nc(CC)nn3C2=O)N2CCN(CCO)CC2)cc1 (stereo not given)
 : -4.6 | -8.7
Cc1ccccc1-c1ccc(-n2cncc2C(=O)NC(C)CCc2ccccc2)cc1 (stereo not given)
 : 1.7 | -3.8
C=CCn1c(SCC(=O)N2CCC(C)CC2)nc2c([nH]c3ccccc32)c1=O
 : 0.4 | -0.7
CCCCN(CC(=O)N(CCc1c[nH]c2ccccc12)Cc1ccccc1)C(=O)Nc1ccc(OC)cc1
 : 14.8 | 25.3
CCS(=O)(=O)c1ccc(C(=O)N(CCCN2CCOCC2)c2nc3ccc(F)cc3s2)cc1
 : -4.3 | -8.8
COCCCNC(=O)c1ccc(CSc2nc(Cl)cc(N3CCN(c4cccc(C(F)(F)F)c4)CC3)n2)cc1
 : 14.4 | 20.9
C=CCOc1cccc(C(=O)N2CCCC(CCC(=O)NCc3ccccc3F)C2)c1 (stereo not given)
 : 3.1 | 3.9
COCC(O)CN(Cc1nc2scc(-c3ccccc3Cl)c2c(=O)[nH]1)C(C)C (stereo not given)
 : -4.7 | 15.2
COc1ccc(CCN(C)C(=O)c2ccc(Cl)c(Cl)c2)cc1OC
 : -6.3 | -10.7
Cc1ccc(Cn2ccnc2CN(C(=O)CC(C)C)C(C)C)cc1
 : 2.8 | 3.0
CN1CCN([C@@H]2c3ccccc3C3(CCN(Cc4ncc[nH]4)CC3)[C@H]2O)CC1
 : -17.1 | -22.7
C=C1C2(C(=O)N3CCC(CN4CCCC4=O)CC3)CCC(C2)C1(C)C (stereo not given)
 : -4.8 | -5.6
CCCCC(CC)C(=O)N1CCC(Cc2ccc(F)cc2)CC1 (stereo not given)
 : 12.9 | 11.5
CCc1cn[nH]c1C1CCN(Cc2cn[nH]c2-c2ccc(F)cc2)CC1
 : 9.6 | 6.0
COc1cc2c(cc1OC)CN(C(=O)NCc1cccc(F)c1)CC2
 : 6.3 | 1.1
Cc1nc(-c2ccc(Cl)cc2)nc(N2CCN(S(=O)(=O)c3ccc(F)cc3)CC2)c1Cc1ccccc1
 : -3.6 | -2.8
CSc1nccn2nc(-c3ccc(F)cc3)cc12
 : -2.9 | -4.2
CCC(C)CNCc1cnc(SC)nc1N(CC)CC (stereo not given)
 : -1.2 | -2.9
CC1(C)C[C@H]2C[C@@H](Oc3ccccn3)[C@H](N3CCc4ccccc4C3)[C@]2(O)CO1
 : 7.5 | 21.1
Cc1nc2c(c(N3CCCC3)n1)CCN(C(=O)c1occc1C)C2
 : 0.4 | -2.1
Cc1cc(O)c(CN2CCN(C)CC2)c2c1C(=O)/C(=C/c1cc3ccccc3o1)O2
 : 7.6 | 4.5
COCc1nc(N2CCc3[nH]nc(C4CCC4)c3C2)c2cnn(C)c2n1
 : 5.9 | 1.7
Cc1nnc(-c2cn(CC(=O)Nc3ccccc3)c3ccccc23)o1
 : 0.8 | 6.7
Cc1cc(NC(=O)CNC2CCCCC2C)ccc1Br (stereo not given)
 : 4.6 | -0.7

New compounds follow
Below each SMILES – NPYLR7 agonist | NPYLR7 agonist max-min
Cn1ncnc1-c1ccnc(N2C[C@H]3CC[C@H]2C3)n1
 : 19.0 | -0.3
Cc1ccc(NC(=O)CC(=O)NCCc2csc(C(C)C)n2)cc1
 : -2.1 | -13.6
CC(C)[C@H]1CC[C@H](C)C[C@H]1OCC(=O)NCCCN(C)c1ccccc1
 : 26.3 | 20.0
CCC(C)C1CN(Cc2ccc(C)nc2)CCN1 (stereo not given)
 : 8.2 | 5.5
CN(Cc1cnccn1)C(=O)CC1C(=O)NCCN1CC(c1ccccc1)c1ccccc1 (stereo not given)
 : 3.0 | 1.6
Cc1c(C(=O)NCCOc2ccccc2)cnc2c(-c3c(F)cccc3Cl)cnn12
 : 15.5 | 8.7
O[C@H]1CN(c2ncnc3[nH]ccc23)C[C@@H]1N1CCN(c2ccccn2)CC1
 : 3.7 | 0.7
CC1CCCN(CC(=O)Nc2sc3c(c2C#N)CCCC3)C1 (stereo not given)
 : -5.8 | -0.3
Cc1nc(N2CCCC2)nc(-c2ccc(F)c(CO)c2)c1C
 : -0.8 | -0.8
Cc1ccc(N(CCCCN2C(=O)c3ccccc3C2=O)C(=O)Cc2cccc3ccccc23)cc1
 : -5.9 | -10.5
CN(Cc1ncc(C(C)(C)C)o1)C1CC(=O)N(Cc2ccccc2)C1=O (stereo not given)
 : 16.5 | 12.9
COc1ccc(CN(CC(C)C)CC(C)(C)O)cc1OC
 : 26.2 | 23.3
COc1ccccc1-n1cc(C(=O)N[C@@H]2C[C@@H](CO)N(C)C2)cn1
 : 2.0 | 0.8
CC(NC(=O)c1cn[nH]n1)C(c1ccccc1)c1ccccc1 (stereo not given)
 : -0.3 | -3.5
O=S(=O)(NN=Cc1c[nH]c2ccccc12)c1ccc(Br)cc1
 : -5.1 | -12.3
COc1ccc(-n2c(C(C)N(CCc3ccccc3)C(=O)Nc3cccc(Br)c3)nc3ccccc3c2=O)cc1 (stereo not given)
 : 18.0 | 17.9
Cc1cc(C)n(-c2ccc(S(N)(=O)=O)cc2)n1
 : 11.9 | 5.4
NC(=O)c1ccsc1NC(=O)CCCC(=O)O
 : -1.3 | 1.2
O=C(O)CCC(=O)NNC(=O)c1cc2ccccc2cc1O
 : -8.3 | -12.2
Cc1nn(C)c(C)c1CN(C)Cc1cccc(C(=O)Nc2c(C)noc2C)c1
 : -0.8 | -10.0
O=[N+]([O-])c1ccc(Nc2ccc(F)cc2)c([N+](=O)[O-])c1
 : 2.1 | 0.4
O=C1OCCN1c1ccc(NC(=O)N2CCCCCC2c2ccncc2)cc1 (stereo not given)
 : 12.9 | 9.7
CCCNC(=O)CCCC(=O)N1CCN(c2ccnc(-c3ccccc3)n2)CC1
 : 12.3 | 12.3
CCC(C)(C)NS(=O)(=O)c1ccc2c(c1)CCC(=O)N2
 : 2.0 | -2.9
CCOC(=O)CC(=O)N1CCN(c2nccc(-c3cc(OC)c(OC)c(OC)c3)n2)CC1
 : 3.7 | 0.5
Cc1cc(C)c2c(n1)nn1c(N3CCC(Cc4ccccc4)CC3)cc(C)nc21
 : -0.2 | 7.0
O=S(=O)(NCC1(O)CCCC1)c1cc(F)ccc1F
 : 3.3 | 0.0
CCCCOc1ccc(-c2cc3c(=O)n(Cc4nc(-c5ccc(C)cc5)no4)ccn3n2)cc1
 : -2.7 | -6.3
COc1ccc2c(=O)c3c(=O)n(CCc4ccccc4)c(C)nc3oc2c1
 : 6.7 | 3.6
Cc1ccc(Cn2c(=O)c(C(=O)NCC3CC3)nn(-c3ccccc3)c2=O)cc1
 : 12.4 | 14.8
COc1ccc(S(=O)(=O)c2cnc3ccc(OC)cc3c2N2CCCC2)cc1
 : 6.3 | 5.1
CC(=O)Nc1ccc(Nc2nc(-c3ccccc3)c3cc(Cl)ccc3n2)cc1
 : -1.9 | -6.0
COCCNC(=O)c1nn(-c2cccc(F)c2)c(=O)n(Cc2ccccc2C)c1=O
 : 11.5 | 13.3
O=C(Cn1cnc([N+](=O)[O-])n1)N/N=C\c1ccccc1OCc1ccc(Br)cc1
 : -9.4 | -20.3
COc1ccc(NC(=O)C2C=CCN2)cc1NC(=O)c1ccco1 (stereo not given)
 : 64.3* | 48.3*
CCCCNC(=O)CN(C)C(=O)c1cccc(-c2ccc(O)cc2)c1
 : 2.0 | 0.8
CCONC(=O)c1cc(-c2ccccc2)nc2cc(C(C)(C)C)nn12
 : 15.2 | 24.1
CC(C)CCNC(=O)c1[nH]ncc1[N+](=O)[O-]
 : -1.4 | -3.1
Cc1nc(CN(C)C(=O)C2c3ccccc3-c3ccccc32)no1
 : 1.6 | -8.0
COC(=O)c1ccccc1NC(=S)NC(c1ccc(SC)cc1)c1cccc(Cl)c1Cl (stereo not given)
 : -6.8 | -15.5
COCC(C)NCc1ccc(C(=O)OC)cc1 (stereo not given)
 : 14.8 | 4.9
O=C(O)C1(CC2CCCCO2)CCN(c2noc(-c3ccccc3)n2)CC1 (stereo not given)
 : -2.7 | -7.1
CCOC(=O)C(C)(C)Sc1nc2c(c(=O)n1-c1ccccc1)SCC2
 : -3.6 | -4.6
CCSc1c(C(C)C)cnc2c1c(=O)n(C)c(=O)n2C
 : 6.5 | 18.2
CCN(CC)c1cc(C(C)C)nc(SCc2ccc(C(=O)O)cc2)n1
 : -17.6 | -10.0
Cc1cc(C)n(CCNC(=O)C(C)(C)NC(=O)c2cccs2)c(=O)n1
 : 7.2 | 4.6

Pulled by compound from above:
Below each SMILES – NPYLR7 agonist | NPYLR7 agonist max-min
COCC(C)NCc1ccc(C(=O)OC)cc1 (stereo not given)
 : 14.8 | 4.9
CCCCNC(=O)CN(C)C(=O)c1cccc(-c2ccc(O)cc2)c1
 : 2.0 | 0.8
CC(=O)Nc1ccc(Nc2nc(-c3ccccc3)c3cc(Cl)ccc3n2)cc1
 : -1.9 | -6.0
COc1ccc(S(=O)(=O)c2cnc3ccc(OC)cc3c2N2CCCC2)cc1
 : 6.3 | 5.1
Cc1nc(CN(C)C(=O)C2c3ccccc3-c3ccccc32)no1
 : 1.6 | -8.0

These rows are one share of the data; count on the stated rates, not on these rows.
